HPGD block – qHTS Assay for Inhibitors of HPGD (15-Hydroxyprostaglandin Dehydrogenase); purified HPGD, NADH fluorescence kinetic, PGE2 substrate; Potency, µM, without a hit: at the top dose activity change, negative = inhibition, most hits filed as inhibitors; hit rate 4.3% among 150,000; AID 894, 2007; active = well fitted inhibition curve with a large enough effect (not every such curve was filed as active); inconclusive = small, poorly fitted or top-dose-only effect, or another doubt; inactive = no such curve, though single readings can be large or run the other way;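 further: top concentration of the series not given in the record; plate controls included wells without enzyme; inactives centre near -10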
Target sequence (P15428 whole entry, looked up): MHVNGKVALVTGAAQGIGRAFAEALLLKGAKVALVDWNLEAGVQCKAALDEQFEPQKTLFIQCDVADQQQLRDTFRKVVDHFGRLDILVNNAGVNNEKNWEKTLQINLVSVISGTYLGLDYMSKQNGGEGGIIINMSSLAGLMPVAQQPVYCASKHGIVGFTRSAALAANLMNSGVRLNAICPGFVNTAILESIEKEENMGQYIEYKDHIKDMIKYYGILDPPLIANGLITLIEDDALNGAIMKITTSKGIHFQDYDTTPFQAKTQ
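20 nM HPGD preincubated 15 min at room temperature with compound in 50 mM Tris-HCl pH 8, 0.01% Tween 20. Started with 1 mM NAD+ and 30 uM prostaglandin E2; NADH fluorescence (360/450 nm) read 5 times over 30-s intervals, last minus first.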
* hit, by the source's call; ? = inconclusive; & = joins results of further samples. On the % scale 0 is the no-effect control and ±100 the full control effect; potency means the concentration at half of the fitted maximal effect. A portion of the library; rates above refer to the full screens.

HPGD block | SMILES
? | COc1ccc(-n2ncc3c(NCc4ccco4)ncnc32)cc1
? | N#CCSc1nc2ccc(N3CCCCC3)cc2c(=O)n1Cc1ccccc1
? | O=C(N/N=C/c1cccc(O)c1)c1ccc(COc2ccccc2Br)cc1
-25.2% | Cc1cc(NC(=O)c2c(F)cccc2F)n(-c2nc3ccccc3[nH]2)n1
-0.3% | Cc1ccc(S(=O)(=O)N2CCCC2C(=O)NCCc2nc3ccccc3[nH]2)cc1 (stereo not given)
-4.6% | Cc1ccc2oc(-c3cccc(NC(=S)NC(=O)c4cccs4)c3)nc2c1
-28.6% | COc1ccccc1CNC(=O)COC(=O)Cc1ccc(Cl)cc1
-3.3% | O=C(Nc1cccc(C(F)(F)F)c1)c1cccnc1N1CCN(CCO)CC1
-7.8% | CCCCOC(=O)Cn1c(=N)n(CCN(CC)CC)c2ccccc21
-4.6% | C=C[C@H]1CCC=C2C(=O)CCC[C@@H]21
-9.9% | NC(=O)Cn1nnc(-c2ccccc2NC(=O)c2cnccn2)n1
-4.9% | O=C(NC(c1ccccc1)c1c(O)ccc2ccccc12)c1ccccc1Cl (stereo not given)

Continued; the last 2 above are carried over.
HPGD block | SMILES
-9.9% | NC(=O)Cn1nnc(-c2ccccc2NC(=O)c2cnccn2)n1
-4.9% | O=C(NC(c1ccccc1)c1c(O)ccc2ccccc12)c1ccccc1Cl (stereo not given)
-3.9% | CCOC(=O)CSc1nc2cccnc2n1-c1ccc(F)cc1
-11.6% | COc1ccc(CCNC(=O)c2ccc(CNS(=O)(=O)c3cccc(Cl)c3)cc2)cc1OC
? | C=CCn1c(SCCCc2ccccc2)nc2c1c(=O)[nH]c(=O)n2C
-13.2% | COCCNC(=O)c1ccc(CS(=O)(=O)c2c(Cl)cccc2Cl)o1
-1.8% | O=C(C(Sc1ccccc1)c1ccc(Br)cc1)N1CCOCC1 (stereo not given)
-13.9% | O=C1OC2(CCCCC2)OC(=O)C1=CNc1ccc2c(c1)OCO2
-4.7% | CCn1c(C)cc(=S)c2ccccc21
-1.7% | CC[C@H](C)[C@@H]1NC(=O)c2cc([N+](=O)[O-])cc(I)c2SC[C@@H](C(N)=O)NC(=O)[C@H](CCCCN)NC1=O
28.2µM* | COC(=O)c1ccc(/C=N/OCC(=O)NC2CCCCCCC2)cc1
-25.0% | CN(C)C(=O)c1ccc(NC(=O)c2cncc(Br)c2)cc1
-17.1% | Oc1c(CN2CCN(c3ccc(F)cc3)CC2)cc(Cl)c2cccnc12
-13.3% | COc1ccc(NC(=O)C23CC4CC(C2)CC(n2cnc(Br)n2)(C4)C3)c(OC)c1

Remaining list, next part:
HPGD block | SMILES
-6.9% | Cc1cc(Br)ccc1OCC(=O)NNC(=O)Cc1ccccc1
-7.5% | C/C(=N\Nc1nccnc1Cl)c1c(F)c(F)c(F)c(F)c1F
-21.8% | Cc1ccc(C2CC(c3ccc(Cl)cc3)=NNC2=O)cc1 (stereo not given)
-9.1% | Cc1ccc(SCc2[nH]nc3c2C2(C(=O)N(C)c4ccccc42)C(C#N)=C(N)O3)cc1 (stereo not given)
-20.8% | COCCNC(=O)C(c1cccs1)N(Cc1cccs1)C(=O)Cn1nnc2ccccc21 (stereo not given)
-13.7% | COc1ccc(OCC(=O)NNc2c3ccccc3nc3ccccc23)cc1
-24.0% | CCOC(=O)Cn1nc(CC)c2ccccc2c1=O
-3.7% | CCOc1ccc(C2CC(c3cccc(OC)c3)n3nc(N)nc3N2)cc1 (stereo not given)
? | N#CC1=C(O)CCCn2c1nc1ccccc1c2=O
3.1% | Clc1ccccc1OCCCCN1CCCC1
-18.9% | CCOC(=O)CSc1nc(N)c2c3c(sc2n1)CCCC3
-5.7% | CCCCc1cc2ccccc2c(OCCN(C)C)n1

(further entries)
HPGD block | SMILES
-5.9% | CCOc1ccc(NCc2nnc(SCC(=O)Nc3nc(-c4ccccc4)cs3)n2-c2ccccc2)cc1
-8.1% | CCCCn1c(N)c(Sc2ccc(C)cc2)c(=O)[nH]c1=O
-5.2% | CC1CCN(c2cc(N3CCN(C(=O)c4ccc(F)c(F)c4)CC3)c([N+](=O)[O-])cc2F)CC1
-26.7% | O=C(Nc1ccc2oc(-c3cccnc3)nc2c1)c1ccc(Br)o1
-16.5% | CC(C)NC(=O)CSCc1ccccc1Cl
-9.8% | Cc1nc(-c2ccccc2)c(Cc2ccccc2O)c(=O)[nH]1
-2.7% | CCN(CCCNC(=O)c1[nH]c(C)c(C(C)=O)c1C)c1ccccc1
-9.9% | CCC1C/C(=C/c2ccco2)C(=O)/C(=C/c2ccco2)C1 (stereo not given)
-3.8% | COc1cc(NC(=O)c2cccnc2Sc2ccc(C)c(C)c2)cc(OC)c1OC
-7.3% | Cc1nc2ccccn2c1C(=O)N/N=C/c1ccccc1[N+](=O)[O-]
-6.1% | CCOC(=O)C1CCN(Cc2ccccc2C)CC1
? | Fc1ccc(Cn2ccc(-c3cnc(-c4ccccc4)s3)n2)cc1

(cont.)
HPGD block | SMILES
-8.7% | CCOc1cccc(-c2cc(=O)[nH][nH]2)c1
28.2µM* | COc1ccc2[nH]c(=S)[nH]c2c1
-2.9% | COc1cc(C)ccc1NC(=O)c1ccc(S(=O)(=O)N2CCOCC2)cc1
-10.1% | COc1ccc(S(N)(=O)=O)cc1C(=O)NCCCN1CCN(c2cccc(Cl)c2)CC1
-20.5% | C=CCNC(=O)c1cc(=O)c2ccccc2o1
-11.7% | COc1ccc(/C=C2/SC(=O)N(CCC(=O)Nc3ccccc3)C2=O)cc1OC
-20.8% | CC(C)c1nnc(NC(=O)c2sc3ccccc3c2Cl)s1
-6.6% | CCOC(=O)C1CCN(C(=O)c2ccc(OC)cc2OC)CC1
-7.2% | Cc1ccc2nc(NCc3ccccc3)c(C=NCc3ccccc3)c(=O)n2c1
-10.2% | COc1cc(C(C(=O)NC2CCCCC2)N(C(=O)Cc2c[nH]c3ccccc23)c2ccc(C)cc2)cc(OC)c1OC (stereo not given)
-11.5% | CSc1nc2sc3c(c2c(=O)n1C)CCC(C)C3 (stereo not given)
-18.9% | CCc1ccc(NC(=O)COC(=O)/C(=C/c2ccccc2OC)c2ccccc2)cc1

Carrying on:
HPGD block | SMILES
-9.4% | CC1(C)OC(C(=O)NC2CCCCC2)C(C(=O)NC2CCCCC2)O1 (stereo not given)
-7.8% | Cc1cc(C)c(OCC(=O)N/N=C/c2ccc3c(c2)OCO3)c(C)c1
-19.3% | CC(C)CNC(=O)c1ccccc1NC(=O)CSCc1ccccc1
-13.5% | COc1ccc(C(=O)/C=C/Nc2ccc(NC(C)=O)cc2)cc1OC
2.1% | CNC(=S)NNC(=O)c1cccn(Cc2cccc(Cl)c2)c1=O
-7.5% | C=CCn1c(C(C)NC(=O)c2ccccc2)n[nH]c1=S (stereo not given)
-10.8% | Cc1ccc(CN=C2Nc3ccccc3CS2)cc1
-21.9% | COc1ccc([N+](=O)[O-])cc1N(CC(=O)NCC1CCCO1)S(C)(=O)=O (stereo not given)
-10.9% | Cc1cc(C(=O)OC(C)C(=O)Nc2nc(-c3ccccc3)cs2)c(C)o1 (stereo not given)
? | CC(C)CCNC(=O)c1ccc(C2SCC(=O)N2Cc2ccco2)cc1 (stereo not given)
-1.2% | CN(Cc1nnc(SCC(=O)NCCc2ccccc2)n1C)S(=O)(=O)c1ccccc1
-1.8% | COc1ccccc1N(CC(=O)NCc1cccnc1)S(C)(=O)=O

Next part
HPGD block | SMILES
-20.5% | COc1ccccc1Oc1ccc2c(c1)C(=O)N(c1cccc(O)c1)C2=O
0.5% | Cc1ccc(C)c(NC2=NC3(CCCCC3)N=C(N)N2)c1
-3.9% | N#CCCSc1nc(N2CCOCC2)c2c(c1C#N)CCCC2
-6.2% | Cn1c(SCC(=O)NC(c2ccccc2)c2ccccc2)nnc1-c1cccs1
-12.9% | CCOC(=O)c1nnn(CC(=O)Nc2cccc(OC)c2)c1C(=O)OCC
-23.0% | C#CCSC1=C(C#N)C(c2cccs2)C(C(=O)OCC)=C(C)N1 (stereo not given)
-29.8% | O=C(Nc1cnn(Cc2ccccc2)c1)c1nc2ncccn2n1
-5.3% | Cc1ccc2c(c1)c1c3n2CCN=C3CCC1
-10.0% | CCc1noc(C)c1C(=O)Nc1nc(-c2ccc(Cl)cc2Cl)cs1
? | COc1c(C)oc2cc(O)ccc2c1=O
-10.8% | Cn1nc(CC(=O)NC2CCCCC2)c2ccccc2c1=O
-25.5% | CCCSc1cc(NCCOC(C)=O)c([N+](=O)[O-])c2nonc12

Continuation:
HPGD block | SMILES
-16.7% | Cc1nc2sc(C(c3cccc(F)c3)N3CC(C)OC(C)C3)c(O)n2n1 (stereo not given)
-20.8% | O=C(C1CC1)N1CCc2cc(S(=O)(=O)NCC3COc4ccccc4O3)ccc21 (stereo not given)
-1.3% | O=C1CC(N2CCN(c3cccc(C(F)(F)F)c3)CC2)C(=O)N1c1ccccc1 (stereo not given)
-1.0% | Cc1sc(NC(=O)CN2CCN(c3ccccn3)CC2)c(C#N)c1C
0.9% | CCOC(=O)c1c(NC(=S)Nc2ccc(F)cc2)sc2c1CCC2
-10.6% | COc1ccc2c3c1O[C@H]1C[C@@H](O)C=C[C@@]31CCN(C)C2
-11.9% | CCN1CCN(c2ccc([N+](=O)[O-])cc2C(=O)c2ccc(Cl)cc2)CC1
-11.5% | S=C(Nc1ccc(Cl)c(Cl)c1)NC1CCCCC1
-7.3% | O=C(NCCO)C(c1ccccc1)c1ccccc1
? | Cc1occc1C(=O)N/N=C/C1=C(N2CCOCC2)C(=C\c2ccc(Cl)cc2Cl)/CC1
-3.3% | O=C(Nc1nnc(COc2ccccc2)s1)C1CCN(S(=O)(=O)c2ccc(Cl)cc2)CC1
-17.8% | Cc1cc(NC(=O)CCCC(=O)NCc2cccs2)no1

(next part)
HPGD block | SMILES
-11.2% | COc1ccc(N(C)C2=NS(=O)(=O)c3ccccc32)cc1
1.2% | CC(C)CN(C(=O)COC(=O)C12CC3CC(CC(O)(C3)C1)C2)C1CCS(=O)(=O)C1 (stereo not given)
-9.9% | CS(=O)(=O)NCCSCc1ccccc1
3.2% | CC1(C)N=C(N)N=C(N)N1CCCCc1ccccc1
-0.6% | CCOC(=O)CNC(=O)c1ccc(C#CC2(O)CCCCC2)cc1
2.3%&-4.8% | Cc1ccc(C(=O)C[n+]2cc(-c3ccccc3)n3c2CCCCC3)cc1
1.3% | CCNc1nc(OCC)nc(N2CCC(Cc3ccccc3)CC2)n1
-20.0% | Oc1ccccc1/C=N/n1c2ccccc2c2ccccc21
? | CCCCCCc1nc2ccccc2c(=O)n1NC(=O)c1c(O)c2c(n(CC(C)C)c1=O)CCCC2
3.5% | Cc1cccc(N(CC(=O)Nc2c(C)n(C)n(-c3ccccc3)c2=O)S(C)(=O)=O)c1
-12.7% | CC(=O)Nc1ccc(N2C(=O)CC(c3ccccc3)CC2=O)cc1
-8.9% | CSC1=NCCN1C(=O)c1ccc(S(=O)(=O)N(C)C)cc1

Arranged by the number under HPGD block (ascending): four from the list above
HPGD block | SMILES
-9.9% | CCC1C/C(=C/c2ccco2)C(=O)/C(=C/c2ccco2)C1 (stereo not given)
-9.4% | CC1(C)OC(C(=O)NC2CCCCC2)C(C(=O)NC2CCCCC2)O1 (stereo not given)
-5.3% | Cc1ccc2c(c1)c1c3n2CCN=C3CCC1
-4.6% | Cc1ccc2oc(-c3cccc(NC(=S)NC(=O)c4cccs4)c3)nc2c1

Further results:
HPGD block | SMILES
? | Cc1nn(-c2ccccc2)c(N2CCCC2)c1/C=N/NC(=S)Nc1cc(C(F)(F)F)ccc1Cl
-8.8% | Cc1cc(C(=O)CSc2n[nH]c(N)n2)c(C)n1C1CC1
? | COC(=O)[C@@H]1CC[C@H](C)[C@@H](c2ccc(C)cc2)N1C(=O)c1ccc(/C=N/O[C@@H](C)CN2CCCCc3nc(C)c(C)cc32)cc1
-2.9% | CSc1nc2[nH]c3c(c2c2nnnn12)CCCC3
-9.0% | Cc1noc(C)c1S(=O)(=O)N(CC(=O)O)c1ccc2c(c1)OCO2
-13.1% | CN(C)S(=O)(=O)c1cccc(C(=O)Nc2cccnc2)c1
-3.6% | Cc1ccc(C(=O)/C=C/Nc2ccc([N+](=O)[O-])cc2Br)cc1
-12.9% | COc1ccc(NCc2nnc(SCC(=O)N3CCCc4ccccc43)n2C)cc1
-12.1% | COc1ccc(/C=N/n2cncn2)cc1CSc1ccccn1
-14.3% | CCOC(=O)CNC(=O)CSc1ncnc2c1nnn2-c1ccc(F)cc1
-0.1% | COC(=O)c1ccc(C(NC(=O)OCc2ccccc2)/C(=C/[C@@H](C)C(=O)N(C)C)c2cccnc2)cc1 (stereo not given in full)
2.7% | O=C(CCSCCC(=O)NCCN1CCOCC1)NCCN1CCOCC1

HPGD block: hit marks shown above.
HPGD block | SMILES
28.2µM* | COC(=O)c1ccc(/C=N/OCC(=O)NC2CCCCCCC2)cc1
28.2µM* | COc1ccc2[nH]c(=S)[nH]c2c1

(list continues)
HPGD block | SMILES
-16.5% | CC(=O)C1=NN(c2ccccc2)C(c2ccc3c(c2)OCO3)N1c1ccccc1 (stereo not given)
-29.1% | COc1ccc2nc(N/C(N)=N/C(=S)Nc3ccc(C)c(C)c3)nc(C)c2c1
? | Nc1c(C(=O)NCc2ccccc2)c2nc3ccccc3nc2n1-c1ccc2c(c1)OCO2
-20.2% | CCOC(=O)c1[nH]c2ccc(Cl)cc2c1NC(=O)c1nonc1C
-15.5% | COc1ccc(C(=O)NC(=S)Nc2nc(C)c(C(=O)N(C)C)s2)cc1
-8.5% | COC(=O)[C@@H]1C[C@H]2CC[C@H](O)C[C@H]2N1Cc1ccccc1OS(=O)(=O)c1ccc(C)cc1
-7.0% | Oc1ccc(Cl)cc1Cc1cc(Cl)cc(Cc2cc(Cl)ccc2O)c1O
-2.0% | O=C(C=C1CCN(c2ncc(C(F)(F)F)cc2Cl)CC1)NNC(=O)Nc1ccccc1
-6.8% | O=C(CSCCO)Nc1cccc(C(F)(F)F)c1
-19.9% | Cc1ccc(-c2nnn(CC(=O)Nc3ccc(S(=O)(=O)N4CCC(C)CC4)cc3)n2)cc1
